HPGD inh = blocks human HPGD enzyme activity; P15428; purified HPGD, NADH fluorescence kinetic, PGE2 substrate; Potency, µM, for inactives: at the highest dose activity change, negative = inhibition, usual class: inhibitors; hit rate 4.3% among 150,000; active = well fitted inhibition curve with a large enough effect (not every such curve was filed as active); inconclusive = small, poorly fitted or top-dose-only effect, or another doubt; inactive = no such curve, though single readings can be large or run the other way;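 further: top concentration of the series not given in the record; plate controls included wells without enzyme; inactives centre near -10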
Target sequence (P15428 whole entry, looked up): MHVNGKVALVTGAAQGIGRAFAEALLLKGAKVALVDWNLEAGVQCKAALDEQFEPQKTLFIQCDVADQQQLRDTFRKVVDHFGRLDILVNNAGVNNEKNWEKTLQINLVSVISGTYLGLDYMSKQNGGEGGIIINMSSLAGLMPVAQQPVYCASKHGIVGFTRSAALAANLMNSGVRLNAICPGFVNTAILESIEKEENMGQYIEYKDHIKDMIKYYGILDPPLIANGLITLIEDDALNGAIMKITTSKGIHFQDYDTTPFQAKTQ
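NADH formation kinetics: reaction with 30 uM PGE2 and 1 mM NAD+ (final), 20 nM enzyme, Tris-HCl pH 8 with Tween 20, after 15 min compound preincubation at room temperature. Fluorescence change, last versus first of five reads.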
The depositor's hits bear a star; ? = inconclusive. On the % scale 0 is the no-effect control and ±100 the full control effect; potency means the concentration at half of the fitted maximal effect. Some of the compounds tested (hit frequency here may not be typical).

SMILES	HPGD inh
C[C@@H]1O[C@H](O[C@@H]2\C=C/C=C\C=C/C=C\C[C@H](C)OC(=O)/C=C\[C@H]3O[C@@H]3C[C@H](O)C[C@]3(O)C[C@@H](O)[C@@H](C(=O)O)[C@H](C2)O3)[C@@H](O)[C@H](N)[C@@H]1O (stereo in doubt)	0%
CCSC1=C(C#N)C(c2cccc(O)c2)CC(=O)N1 (configuration not stated)	-13%
CCOc1ccc(NC(=O)C2CCN(c3nnnn3-c3ccccc3)CC2)cc1	-3%
CCCN1CCC(N(C)CCc2ccc(OC)c(OC)c2)CC1	-4%
COC(=O)c1sc(NC(=O)c2ccc(C)o2)nc1C	?
CCCCCCCCNC(=O)c1cnsn1	-8%
CC(=O)Nc1c(O)nc(SCC(=O)Nc2c(C)cccc2C)[nH]c1=O	-6%
O=C(c1cc(-c2ccco2)on1)N1CCCc2ccccc21	-22%
O=C(Nc1ccccc1N1CCN(c2ccccc2)CC1)C1CCCCC1	-7%
CCOc1cc2[nH]c(=S)n(CCCCC(=O)NCc3ccco3)c(=O)c2cc1OCC	?
CCOC(=O)c1ccc(N2CN(C3CCCCC3)CNC2=S)cc1	-2%
CC1CN(C(c2cccs2)c2sc3ncnn3c2O)CC(C)O1 (configuration not stated)	?
Cc1ccc(C)c(N2CCN(C(=O)Cn3cccc3)CC2)c1	-7%
O=C(c1ccc(Cn2cc(Br)cn2)cc1)N1N=C(C(F)F)CC1(O)C(F)F (configuration not stated)	-7%
Cc1ccccc1OCC(=O)N/N=C/c1ccc(Sc2nc3ccccc3s2)o1	-18%
CC1(C)C2CCC1(CS(=O)(=O)N1CCOCC1)C(=O)C2 (configuration not stated)	-1%
CCC1CCCCN1CC(O)Cn1c2ccccc2n2c(=O)cc(C)c(C#N)c12 (configuration not stated)	-14%
CNC(=O)c1cn(-c2ccccc2)c(=O)c2ccccc12	-13%
O=C(c1cc2ccccc2oc1=O)N(Cc1cccs1)C1CCS(=O)(=O)C1 (configuration not stated)	-9%
CCc1ccc(CSc2nccn2-c2ccccc2)cc1	-9%
Cc1ccc2c(c1)[nH]c1c(=O)n(Cc3ccccn3)cnc12	-20%
Cc1ccc(OC(=O)C(C)c2cccc(C(=O)c3ccccc3)c2)cc1 (configuration not stated)	-12%
O=C(Cc1cc(=O)[nH]c(=O)[nH]1)NCCN1CCOCC1	-9%
CCCOC1(NC(=O)c2ccccc2)C(C)=CC(=O)C=C1C	-9%
COc1ccc(C(=O)Nc2nc(N)n(-c3ccccc3)n2)cc1OC	-15%
Cn1c(CNC(=O)Nc2ccccc2Cl)nnc1SCc1ccccc1	-1%
CCOC(=O)c1ccc(NCc2nc3ccccc3[nH]2)cc1	-13%
Cn1cc(C2CC(c3ccccc3)=NN2C(=O)c2ccccc2)c2ccccc21 (configuration not stated)	?
CCCCN1CCCCC1C(=O)Nc1c(C)cccc1C (configuration not stated)	-5%
O=C(Nc1ccon1)c1csc2ccccc12	25µM*
O=C(Nc1nc(-c2ccc(F)cc2)cs1)C1CCCO1 (configuration not stated)	-27%
COc1ccc(C2=NOC(C(=O)Nc3cc(Br)ccc3O)C2)cc1OC (configuration not stated)	-8%
CCN(CC(=O)Nc1cc(Cl)ccc1C)c1ncnc2sc(C)c(C)c12	?
O=C(CSc1n[nH]c(-c2cccs2)n1)N1CCCc2ccccc21	6.3µM*
CN1CCN(C(=O)c2ccc(CS(=O)(=O)c3c(Cl)cccc3Cl)o2)CC1	-10%
Cc1ccc(S(=O)(=O)N2CCC(N3CCCCCC3)CC2)cc1	-8%
CCC(=O)N1N=C(c2ccc(C)o2)CC1c1ccc(Br)cc1 (configuration not stated)	-22%
CCCCN(CCCC)S(=O)(=O)c1ccc(SCC(=O)OCC)c([N+](=O)[O-])c1	-17%
CC(C)C(C(=O)C=[N+]=[N-])N1C(=O)c2ccccc2C1=O (configuration not stated)	-4%
Cc1noc(NS(=O)(=O)c2ccc(N3CC(O)=C(c4ccccc4)C3=N)cc2)c1C	-18%
Cn1c(OCc2cccnc2)nc2c1c(=O)n(Cc1ccccc1)c(=O)n2C	-14%
COCCCNCCCCSc1ccc(Cl)cc1	9%
Cc1cc(NC(=O)c2ccc(Br)c(S(=O)(=O)N3CCCC3)c2)no1	-3%
CC1(C)[C@H](C(=O)O)N2C(=O)C[C@H]2S1(=O)=O	-2%
COc1ccc(NS(=O)(=O)c2ccc(N3CCOCC3)c(NC(=O)c3cccc(F)c3)c2)cc1	-7%
Cc1ccccc1S(=O)(=O)c1c(C)cc(C)n(C(C)C)c1=O	-7%
O=C(C1CCC1)N1CCc2cc(S(=O)(=O)NC3CCCc4ccccc43)ccc21 (configuration not stated)	?
CC(C)(C)c1nc2scc(-c3ccc(Cl)cc3)c2c(=O)o1	-7%

Molecules listed so far containing bromine, in the order listed:
SMILES	HPGD inh
O=C(c1ccc(Cn2cc(Br)cn2)cc1)N1N=C(C(F)F)CC1(O)C(F)F (configuration not stated)	-7%
COc1ccc(C2=NOC(C(=O)Nc3cc(Br)ccc3O)C2)cc1OC (configuration not stated)	-8%
CCC(=O)N1N=C(c2ccc(C)o2)CC1c1ccc(Br)cc1 (configuration not stated)	-22%
Cc1cc(NC(=O)c2ccc(Br)c(S(=O)(=O)N3CCCC3)c2)no1	-3%

Returning to the listing with the 6 entries that preceded the break.
SMILES	HPGD inh
Cc1cc(NC(=O)c2ccc(Br)c(S(=O)(=O)N3CCCC3)c2)no1	-3%
CC1(C)[C@H](C(=O)O)N2C(=O)C[C@H]2S1(=O)=O	-2%
COc1ccc(NS(=O)(=O)c2ccc(N3CCOCC3)c(NC(=O)c3cccc(F)c3)c2)cc1	-7%
Cc1ccccc1S(=O)(=O)c1c(C)cc(C)n(C(C)C)c1=O	-7%
O=C(C1CCC1)N1CCc2cc(S(=O)(=O)NC3CCCc4ccccc43)ccc21 (configuration not stated)	?
CC(C)(C)c1nc2scc(-c3ccc(Cl)cc3)c2c(=O)o1	-7%
CCC(C(=O)Nc1ccncc1)c1ccccc1 (configuration not stated)	-5%
OCCN1CCN(C(=S)c2ccc(Cl)c(Cl)c2)CC1	14µM*
Cc1ccsc1/C=C1/SC(N2CCOCC2)=NC1=O	-14%
COc1ccc(OC)c(NC(=O)CCN2CCN(Cc3ccccc3)CC2)c1	1%
O=C(O)C(CCCCN1C(=O)c2ccccc2C1=O)N1C(=O)c2ccccc2C1=O (configuration not stated)	-28%
Cn1c(NC(=O)c2ccc(S(=O)(=O)N3CCCCC3)cc2)cc(=O)n(C)c1=O	-16%
O=C(Oc1cccc2cccnc12)c1cccc(-n2cnnn2)c1	-11%
COc1ccc(C2CCCN2C(=O)c2cccs2)cc1 (configuration not stated)	-9%
CCN(CC(F)(F)C(F)F)S(=O)(=O)c1ccc(NC(=O)OC)cc1	-5%
Cc1cc(C)n2c(-c3ccccc3Cl)nnc2n1	?
COC(CCN(C)C)(c1ccccc1)c1ccccc1	-5%
Cc1ccc2[nH]c3c(NCc4ccco4)ncnc3c2c1	?
COc1ccc(/C=N/NS(=O)(=O)c2ccc(C)cc2)cc1OC(=O)c1ccc(C)cc1	-23%
CSC1=N/C(=C\c2ccc(Br)o2)C(=O)S1	-11%
O=C(CC(c1cccs1)S(=O)(=O)c1ccccc1)c1ccc(F)cc1 (configuration not stated)	-1%
CCCCOC(=O)c1ccccc1N1C(=O)C2C3CCC(C3)C2C1=O (configuration not stated)	-1%
O=C1C2CCCN2c2ccc(S(=O)(=O)N3CCOCC3)cc2N1Cc1ccccc1F (configuration not stated)	-15%
Cc1cc(-c2c(C)n([O-])c(C)c(C)[n+]2=O)ccc1F	-2%
Cc1ccnc(SCC(=O)N2CCN(c3cccc(Cl)c3)CC2)n1	-8%
CCC(Sc1nnc(C)s1)C(=O)Nc1nccs1 (configuration not stated)	-18%
COc1ccc(Nc2oc(COc3ccc(OC)cc3)nc2C#N)cc1	?
Cc1c2ccccc2nc2c(F)c(N(C)C)c(F)c(F)c12	-17%
COC(=O)C1CCN(C(=O)C(C)Oc2ccc(Cl)cc2Cl)CC1 (configuration not stated)	-27%
COc1ccc(C(=O)C2CCN(C(=O)c3ccc(C)cc3)CC2)cc1	-6%
O=C(Nc1nc(-c2ccccn2)cs1)C1CC1	0%
N=C(N)SCc1cccc(-c2nc3ccccc3c(=O)o2)c1	-1%
CC1(C)CC(=O)C=C(NC2CCCCCCC2)C1	-11%
Cc1cc(=O)oc(C)c1C(=O)OCC(=O)c1ccccc1	?
CCOC(=O)C1=C(C)N=c2s/c(=C\c3cc(OC)c(OC)c(OC)c3)c(=O)n2C1/C=C/c1ccccc1 (configuration not stated)	-4%
O=S(=O)(c1cccc(-c2nc3ccccc3s2)c1)N1CCCC1	-12%
Cc1cc(C)n(-c2ccc(C(=O)OCC(=O)NCc3ccc(F)cc3)cc2)n1	-19%
COc1cccc2c1OC[C@@H](CO)[C@H]2N(C)C(=O)Nc1ccc(Cl)cc1	-7%
Cc1ccc(-c2noc(CCC(=O)N(C)c3ccccc3C)n2)cc1	14µM*
Brc1ccc(CSc2nnc(Cc3c[nH]c4ccccc34)o2)cc1	-11%
Cc1ccc(C)c(NC(=O)c2nc(-c3ccccc3)n(-c3ccccc3)n2)c1	-11%
CCCn1nnnc1SCC(=O)N1CCCc2ccccc21	-1%
Cc1ccc(NC(=O)CS(=O)CC(=O)Nc2cccc(C)c2C)cc1F (configuration not stated)	-8%
COc1cc2c(cc1OC)C(/C(C#N)=N\O)=NC(C)(C)C2	-12%
Cc1cc(C)c(C)c(S(=O)(=O)N2CCN(CC(=O)Nc3ccc([N+](=O)[O-])cc3)CC2)c1C	-2%
O=C(Nc1ccccc1Cl)c1ccccc1Oc1ccc(C(F)(F)F)cc1[N+](=O)[O-]	-19%
CNC(=O)Nc1cccc(NC(=O)NC)n1	-18%
c1cc2nnnn2nc1N1CCCCC1	-2%
CCn1c(CSc2nc3ccccc3s2)n[nH]c1=S	?
CC[n+]1cc(-c2ccccc2)nc(N2CCOCC2)n1	-11%
CCOC(=O)C1=C(Cn2ccc(C(F)(F)F)n2)NC(=O)NC1c1ccc2c(c1)OCO2 (configuration not stated)	-5%
CCOC(=O)CC1=CC(C)(CC(=O)OCC)C(C#N)(C#N)C(N)=C1C#N (configuration not stated)	-1%
NC(=O)[C@H]1CC2(CC(c3cccc(NC(=O)c4ccccc4)c3)=NO2)CN1C(=O)[C@H]1CCC(=O)N1 (some centres not stated)	-7%
Cc1nn(-c2ccc(F)cc2)c(Cl)c1/C=C(\CC(=O)O)c1nc2ccccc2s1	-21%

6 entries picked at random from those above, as already listed:
SMILES	HPGD inh
Cc1cc(C)c(C)c(S(=O)(=O)N2CCN(CC(=O)Nc3ccc([N+](=O)[O-])cc3)CC2)c1C	-2%
CNC(=O)Nc1cccc(NC(=O)NC)n1	-18%
NC(=O)[C@H]1CC2(CC(c3cccc(NC(=O)c4ccccc4)c3)=NO2)CN1C(=O)[C@H]1CCC(=O)N1 (some centres not stated)	-7%
CCn1c(CSc2nc3ccccc3s2)n[nH]c1=S	?
O=C(Nc1ccccc1Cl)c1ccccc1Oc1ccc(C(F)(F)F)cc1[N+](=O)[O-]	-19%
COc1cc2c(cc1OC)C(/C(C#N)=N\O)=NC(C)(C)C2	-12%

Later entries.
SMILES	HPGD inh
CC(C)(C)C(=O)Cn1c(=N)n(Cc2ccccc2)c2ccccc21	-1%
CSc1nc(C)c(CCOC(=O)c2cccc(C)c2)c(=O)[nH]1	-10%
CCOc1ccccc1OCCOc1cccc(C(F)(F)F)c1	-11%
N#Cc1c(-c2ccc(Cl)cc2Cl)nc2n(c1=O)CCS2	?
CN(C)c1ccc(-c2cncnc2NCc2ccccc2)cc1	?
CCc1nn(CC(=O)N2CCN(Cc3ccc4c(c3)OCO4)CC2)c(=O)c2cc3occc3n12	-15%
COc1ccc(C(=O)NCc2cn3ccccc3n2)cc1	?
COc1cc(C2C(C#N)=C(N)N(c3cccnc3)C3=C2C(=O)CC(C)(C)C3)ccc1O (configuration not stated)	-1%
COc1cc(CN2CCC(C(=O)N3CCCC(C)C3)CC2)cc(Br)c1O (configuration not stated)	-10%
CCc1nnc(SCc2ccc(CSc3nnc(CC)n3N)cc2)n1N	-6%
COc1ccccc1C(=O)NCCn1cc(SCC(=O)Nc2cc(C)on2)c2ccccc21	-5%
CSc1nc(SCC(=O)NC(c2ccccc2)c2ccccc2)c2c3c(sc2n1)CN(C)CC3	-12%
CCOC(=O)c1[nH]c(C)c(C(=O)N(CC)CC)c1C	-8%
Cc1cc2oc(=O)cc(CN3CCN(S(=O)(=O)c4cccs4)CC3)c2cc1C(C)C	-23%
Cc1[nH]n(-c2ccccc2)c(=O)c1/C=N/c1ccccn1	-13%
O=C(CCNC(=O)c1ccccc1Cl)Nc1ccc(Br)c(C(F)(F)F)c1	-7%
CCOC(=O)CNC(=O)/C=C/c1c(Cl)cccc1Cl	-5%
COc1cc(/C(C)=N/NC(=O)Cc2c(C)[nH][nH]c2=O)ccc1O	-6%
CN1CCN(Cc2nc(N)nc(Nc3ccc4c(c3)OCCO4)n2)CC1	-8%
O=c1oc2ccccc2c(Nc2ccccc2)c1[N+](=O)[O-]	-10%
COc1ccc(C(C)(C)C)cc1NC(=O)COC(=O)c1cnc(C)cn1	-14%
CN(c1ccccc1C(=O)Nc1ccc(S(=O)(=O)N2CCOCC2)cc1)S(C)(=O)=O	1%
Cc1ccc(S(=O)(=O)N(C)C)cc1NC(=O)[C@H](Cc1ccccc1)N1C(=O)c2ccccc2C1=O	-10%
O=C(C[C@@H]1C=Cc2ccccc2N1C(=O)c1ccccc1)c1ccccc1	-17%
O=C(CC1S/C(=N/N=C/c2c[nH]c3ccccc23)NC1=O)Nc1ccccc1 (configuration not stated)	?
CC(=O)O[C@]1(C(C)=O)CC[C@@H]2[C@@H]3C=C(C)C4=CC(=O)CC[C@@]4(C)[C@H]3CC[C@]21C	-6%
CCN(CC)CCNC(=O)C(C)c1nn(C)c(=O)c2ccccc12 (configuration not stated)	-8%
N=c1c(C(=O)NCc2ccco2)cc2c(=O)n3ccccc3nc2n1CCc1ccccc1	?
CCOC(=O)N1CCN(Cc2cn3ccccc3n2)CC1	-12%

Compound activity as filed in PubChem BioAssay.
